Rango-impB inh: qHTS Assay for Inhibitors of Rango (Ran-regulated importin-beta cargo) - Importin beta complex formation; Rango CFP/YFP FRET sensor + importin beta, 45 min; Potency, µM (series often up to 92.2 µM), for the others: at the top dose inhibition of complex formation; 340,000 tested, 0.031% active; AID 540263, 2011; active = rising FRET ratio curve, often small or poorly fitted; inconclusive = mostly compound fluorescence or quenching in the first reads; inactive = flat curves in all reads;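 further: potency means the concentration at half of the fitted maximal effect; 0% = DMSO wells and 100% = buffer wells lacking importin beta; nearly all actives have a fitted effect of over 15% in size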
Target sequence (Q14974 whole entry, looked up): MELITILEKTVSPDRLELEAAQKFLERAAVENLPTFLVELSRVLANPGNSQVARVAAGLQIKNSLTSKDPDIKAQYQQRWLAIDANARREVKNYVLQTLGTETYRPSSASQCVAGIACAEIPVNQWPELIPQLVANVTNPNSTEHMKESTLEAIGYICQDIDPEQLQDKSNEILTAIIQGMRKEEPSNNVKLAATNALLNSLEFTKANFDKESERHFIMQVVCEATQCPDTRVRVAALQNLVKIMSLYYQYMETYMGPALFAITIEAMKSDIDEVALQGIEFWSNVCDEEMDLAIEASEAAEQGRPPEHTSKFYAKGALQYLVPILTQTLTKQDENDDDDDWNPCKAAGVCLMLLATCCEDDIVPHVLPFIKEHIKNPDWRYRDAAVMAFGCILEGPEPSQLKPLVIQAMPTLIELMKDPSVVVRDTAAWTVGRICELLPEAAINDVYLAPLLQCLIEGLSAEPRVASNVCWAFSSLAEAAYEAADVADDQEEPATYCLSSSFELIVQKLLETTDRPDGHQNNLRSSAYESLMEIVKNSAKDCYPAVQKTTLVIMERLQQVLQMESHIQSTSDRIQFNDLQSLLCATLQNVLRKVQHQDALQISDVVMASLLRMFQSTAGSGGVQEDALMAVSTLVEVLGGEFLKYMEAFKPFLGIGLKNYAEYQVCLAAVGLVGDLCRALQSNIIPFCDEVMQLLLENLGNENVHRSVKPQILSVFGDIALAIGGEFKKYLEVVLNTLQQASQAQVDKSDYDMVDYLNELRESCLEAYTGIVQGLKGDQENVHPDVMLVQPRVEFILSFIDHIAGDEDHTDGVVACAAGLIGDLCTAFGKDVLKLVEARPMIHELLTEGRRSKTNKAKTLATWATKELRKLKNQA
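Inhibition scored from the CFP 486 nm/YFP 530 nm FRET ratio 45 min after adding 0.125 microM importin beta to 50 nM Rango biosensor preincubated 5 min with compound (room temperature, PBS with DTT, Tween-20, BSA). No-importin wells as positive control.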
GLA inh pH 4.5: qHTS Assay for Inhibitors of Human alpha-Galactosidase at pH 4.5; purified enzyme, 4-MU-alpha-Gal fluorescence, pH 4.5; activity change, negative = inhibition, % at 105 µM; 230,000 tested, under 10 active; inconclusive = small, poorly fitted or top-dose-only inhibition, or a rising curve; inactive = flat fitted curve, though single readings scatter; no compound was filed as active;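 further: 0% = full activity with enzyme and -100% = basal without enzyme; dose as in the result columns while the protocol names 77 µM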
miR-21 FLuc: qHTS Assay for Modulators of miRNAs and/orActivators of miR-21 | 340,000 tested, under 10 active | Potency, µM (highest dose often 38.3 µM), for the others: top-dose reporter change, positive = more light | HeLa miR-21 FLuc reporter, luciferase, 48 h; active = well fitted rising curve with a large enough effect; inconclusive = small, poorly fitted or top-dose-only effect; inactive = no such curve, though single readings can be large or run the other way;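 further: % of control where 0% means no effect; miR-21 action dims this reporter so a rising signal means less miR-21 action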
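HeLa miR-21-FLuc reporter line, endogenous miR-21; 2000 cells/well in DMEM/10% FBS; compound titration up to ~40uM final, 48 h, 37 degree Celsius; luciferase detection reagent, 15 min lysis, CCD luminescence.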
Rango release inh: qHTS Assay for Inhibitors of RanGTP induced Rango (Ran-regulated importin-beta cargo) - Importin beta complex dissociation | Biochemical FRET Rango-importin beta, RanGTP-induced dissociation | Potency, µM (top dose mostly 46.1 µM), for the others: at the highest dose activity change, negative = inhibition | 340,000 tested, 0.071% active; active means falling FRET ratio curve, often poorly fitted, with flat reads before Ran was added; inconclusive means other falling curves, or compound fluorescence or quenching; inactive means flat or rising ratio curve;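 further: potency means the concentration at half of the fitted maximal effect; % of control where 0% means no effect; nearly all actives have a fitted effect of over 45% in size; -100% = wells without RanGTP and RCC1; the record marks most hits as doubtful in a second field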
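Rango (0.1 uM)–importin beta (0.25 uM) complex; RanGTP-RCC1 trigger; 45 min RT; CFP/YFP FRET read.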
An asterisk follows results filed as active; & = joins results of further samples; [ ] = remark or other dose. Not all compounds are listed; the hit share may differ from the screen's.

Start of the data: the first three entries as a preview:
Screening Cc1ccc2nc(-c3ccc(Br)o3)oc(=O)c2c1 returned Rango-impB inh -1.1%, GLA inh pH 4.5 11, miR-21 FLuc -2% and Rango release inh -2%.
Cc1ccc(C(=O)NNC(=O)CCC(=O)NCc2ccccc2)cc1Br was read as Rango-impB inh 5.2%, miR-21 FLuc -1% and Rango release inh 6%.
COC(=O)c1cc(NC(=O)c2ccccc2)c(=O)oc1C was read as Rango-impB inh -0.8%, GLA inh pH 4.5 4, miR-21 FLuc -1% and Rango release inh -17%.

The whole of this part, from the start:
Screening Cc1ccc2nc(-c3ccc(Br)o3)oc(=O)c2c1 returned Rango-impB inh -1.1%, GLA inh pH 4.5 11, miR-21 FLuc -2% and Rango release inh -2%.
Cc1ccc(C(=O)NNC(=O)CCC(=O)NCc2ccccc2)cc1Br was read as Rango-impB inh 5.2%, miR-21 FLuc -1% and Rango release inh 6%.
COC(=O)c1cc(NC(=O)c2ccccc2)c(=O)oc1C was read as Rango-impB inh -0.8%, GLA inh pH 4.5 4, miR-21 FLuc -1% and Rango release inh -17%.
For Nc1c(Cl)ncnc1Nc1ccc(C(=O)O)cc1 the results were Rango-impB inh 3.5% and Rango release inh 22%.
For NC1=NC(=O)C(Cc2ccccc2)S1 (stereo not given) the results were Rango-impB inh -2.1%, GLA inh pH 4.5 5, miR-21 FLuc -5% and Rango release inh -5%.
Cn1c(=O)[nH]c(=O)c2c1nc(CN1CCOCC1)n2CCCO was read as Rango-impB inh -7.5%, GLA inh pH 4.5 -1, miR-21 FLuc -3% and Rango release inh -6%.
CC(=O)Nc1ccc(NC(=O)C2C3CCC(C3)C2C(=O)O)cc1 (stereo not given) was read as Rango-impB inh 0.2%, miR-21 FLuc -2% and Rango release inh -5%.
O=C(CN(c1ccc(Cl)cc1)S(=O)(=O)c1ccc(Cl)c([N+](=O)[O-])c1)NCCc1ccc(F)cc1 was read as Rango-impB inh -0.2%, GLA inh pH 4.5 -4, miR-21 FLuc 1% and Rango release inh -1%.
For CC(C)Nc1ncnc2c1cnn2Cc1ccccc1Cl the results were Rango-impB inh 0.4%, miR-21 FLuc 0% and Rango release inh 13%.
For CSc1ccc(S(=O)(=O)NCCSc2ccccn2)cc1 the results were Rango-impB inh -0.2%, GLA inh pH 4.5 -1, miR-21 FLuc 0% and Rango release inh -1%.
`O=C(Cn1cnc2c(NCc3ccccc3)ncnc21)NCc1ccccn1` gave Rango-impB inh 2.3% and Rango release inh -19%.
`COc1ccc(C2CCCN2C(=S)Nc2cccc(C)c2C)cc1OC` (stereo not given) gave Rango-impB inh -1.4%, GLA inh pH 4.5 -1, miR-21 FLuc 0% and Rango release inh 24%.
For Cn1c(SCc2nc3ccccc3s2)nnc1-c1ccc2c(c1)OCO2 the results were Rango-impB inh -0.8%, GLA inh pH 4.5 0, miR-21 FLuc -42% and Rango release inh -7%.
For COc1ccc(OC)c(CCNC(=O)Cn2ccc3cc(S(=O)(=O)N4CCCC4)ccc32)c1 the results were Rango-impB inh -0.6%, miR-21 FLuc 9% and Rango release inh -13%.
O=C(Nc1nnc(-c2ccco2)o1)C1CC1 was read as Rango-impB inh 4.3%, GLA inh pH 4.5 -20, miR-21 FLuc -2% and Rango release inh 15%.

Sorted by length of the SMILES (lowest first): some entries from above
For NC1=NC(=O)C(Cc2ccccc2)S1 (stereo not given) the results were Rango-impB inh -2.1%, GLA inh pH 4.5 5, miR-21 FLuc -5% and Rango release inh -5%.
For CSc1ccc(S(=O)(=O)NCCSc2ccccn2)cc1 the results were Rango-impB inh -0.2%, GLA inh pH 4.5 -1, miR-21 FLuc 0% and Rango release inh -1%.
For COc1ccc(OC)c(CCNC(=O)Cn2ccc3cc(S(=O)(=O)N4CCCC4)ccc32)c1 the results were Rango-impB inh -0.6%, miR-21 FLuc 9% and Rango release inh -13%.

Three entries picked at random from those above:
O=C(CN(c1ccc(Cl)cc1)S(=O)(=O)c1ccc(Cl)c([N+](=O)[O-])c1)NCCc1ccc(F)cc1 was read as Rango-impB inh -0.2%, GLA inh pH 4.5 -4, miR-21 FLuc 1% and Rango release inh -1%.
`O=C(Cn1cnc2c(NCc3ccccc3)ncnc21)NCc1ccccn1` gave Rango-impB inh 2.3% and Rango release inh -19%.
Cc1ccc(C(=O)NNC(=O)CCC(=O)NCc2ccccc2)cc1Br was read as Rango-impB inh 5.2%, miR-21 FLuc -1% and Rango release inh 6%.

(next part)
Screening COCCCNc1ncnc2nc[nH]c12 returned Rango-impB inh 2.1%, GLA inh pH 4.5 6, miR-21 FLuc -2% and Rango release inh -17%.
For O=C(c1ccc(F)cc1F)N1CCCC(c2nc(-c3cccs3)no2)C1 (stereo not given) the results were Rango-impB inh 0.0%, miR-21 FLuc -9% and Rango release inh 5%.
For Cc1ccc(Oc2ncccc2C(=O)NC2CCSC2=O)cc1 (stereo not given) the results were Rango-impB inh 6.3%, GLA inh pH 4.5 0, miR-21 FLuc -8% and Rango release inh -3%.
Screening Cn1c(=NC(=O)C2CCCCC2)sc2cc([N+](=O)[O-])ccc21 returned Rango-impB inh -0.6%, GLA inh pH 4.5 2, miR-21 FLuc -9% and Rango release inh -9%.
CN(C)C1=NC[C@H](Cc2ccccc2)N1CCc1cccc(F)c1 was read as Rango-impB inh -2.9% and Rango release inh 13%.
For CCOC(=O)CCC(NC(=O)CCCC(=O)NC(CCC(=O)OCC)C(=O)OCC)C(=O)OCC (stereo not given) the results were Rango-impB inh inconclusive, GLA inh pH 4.5 8, miR-21 FLuc 0% and Rango release inh 14%.
For O=C1CN(C(=O)COC(=O)c2ccc(Cl)cc2)c2ccccc2N1 the results were Rango-impB inh -2.3% and Rango release inh -8%.
`O=C(COC(=O)Cc1ccc(S(=O)(=O)N2CCOCC2)s1)Nc1ccc(F)cc1F` gave Rango-impB inh inconclusive and Rango release inh -19%.
For CCN(CC)CCn1c2c(c(SCC(=O)Nc3cc(C)ccc3C)nc1=O)CCC2 the results were Rango-impB inh 2.5% and Rango release inh 10%.
For O=C(O)C[C@H]1c2cc(C(F)(F)F)ccc2S(=O)(=O)N1C1CCCC1 the results were Rango-impB inh -2.6% and Rango release inh 19%.
For CCOc1cc2[nH]c(=O)n(CCCN3CCN(c4ccc(OC)cc4)CC3)c(=O)c2cc1OCC the results were Rango-impB inh -0.7%, GLA inh pH 4.5 -1[21.1 µM], miR-21 FLuc 1% and Rango release inh -1%.
`COc1ccc(CNC(=O)c2[nH]c(C)c(C(C)=O)c2C)cc1` gave Rango-impB inh -1.6%, miR-21 FLuc -8% and Rango release inh -5%.
CSc1ccccc1NC(=O)c1ccco1 was read as Rango-impB inh 0.0%, GLA inh pH 4.5 -8, miR-21 FLuc -10% and Rango release inh 3%.
Clc1cccc(N2CCN(c3nnnn3-c3ccccc3)CC2)c1 was read as Rango-impB inh -2.5%, GLA inh pH 4.5 -7, miR-21 FLuc -1% and Rango release inh 1%.
For CCOC(=O)c1ccc(NC(=O)c2nc(S(=O)(=O)Cc3ccccc3)ncc2Cl)cc1 the results were Rango-impB inh -3.9%, miR-21 FLuc inconclusive and Rango release inh -10%.
Screening O=C(COC(=O)/C=C/c1ccc([N+](=O)[O-])cc1)NCc1ccccc1 returned Rango-impB inh -0.7%, GLA inh pH 4.5 -3, miR-21 FLuc 0% and Rango release inh 2%.
`Cc1ccc(C)c(-c2nnc(NC(=O)c3ccc([N+](=O)[O-])o3)o2)c1` gave Rango-impB inh -0.1% and Rango release inh 0%.
For O=C(c1ccc(F)cc1)N1CCCCC(Sc2nnnn2-c2ccccc2)C1=O (stereo not given) the results were Rango-impB inh -0.1%, GLA inh pH 4.5 -11, miR-21 FLuc -7% and Rango release inh 1%.
For NC(N)=NS(=O)(=O)c1ccc(NC(=S)NC(=O)/C=C/c2cccs2)cc1 the results were Rango-impB inh -2.3%, GLA inh pH 4.5 -8, miR-21 FLuc -11% and Rango release inh 3%.
Screening C=CCOc1ccc(CNc2ccc(NC(=O)CC(C)C)cc2)cc1OC returned Rango-impB inh 3.2%, GLA inh pH 4.5 3, miR-21 FLuc -14% and Rango release inh 5%.
For CC1=NN(C(N)=S)C(=O)C1N=Nc1ccccc1C (stereo not given) the results were Rango-impB inh -1.6%, GLA inh pH 4.5 -22, miR-21 FLuc -24% and Rango release inh 8%.
COc1cc(/C=C2/C(=N)N3C(=NC2=O)SN=C3S(C)(=O)=O)ccc1OC(=O)c1ccco1 was read as Rango-impB inh inconclusive, miR-21 FLuc 0% and Rango release inh inconclusive.
C[C@H]1COC(=O)[C@H](CC(=O)OC(C)(C)C)C/C=C\C[C@@H](CC(=O)N[C@H](CO)Cc2ccccc2)C(=O)N1 was read as Rango-impB inh 0.0% and Rango release inh 13%.
`C=CCOc1ccccc1CNc1ccccc1C` gave Rango-impB inh -2.2%, GLA inh pH 4.5 -7, miR-21 FLuc -4% and Rango release inh 3%.
For CCSc1nnc(-c2ccc(S(=O)(=O)N3CCCC3)cc2)n1C the results were Rango-impB inh -3.8%, GLA inh pH 4.5 3, miR-21 FLuc 2% and Rango release inh 9%.
For COc1ccc(CCN=C(C)c2cc(C)c(C)cc2O)cc1OC the results were Rango-impB inh 4.2%, miR-21 FLuc 0% and Rango release inh -9%.
Screening COc1ccc(NC(=S)NC2CCCCCC2)c(OC)c1 returned Rango-impB inh -0.2%, GLA inh pH 4.5 -3, miR-21 FLuc -14% and Rango release inh 9%.
`O=C(NCCOc1ccccc1F)c1ccccc1SCc1ccc(F)cc1` gave Rango-impB inh -1.4%, GLA inh pH 4.5 -3, miR-21 FLuc -6% and Rango release inh 8%.
`c1ccc(CN2CCc3[nH]c4ccccc4c3C2)cc1` gave Rango-impB inh -6.7% and Rango release inh 4%.
For CN(Cc1ccco1)S(=O)(=O)c1nnc(NC(=O)c2cccc(Cl)c2)s1 the results were Rango-impB inh -2.6%, miR-21 FLuc -22%&-14% and Rango release inh 1%.
For CCN(CC)c1ccc([N+](=O)[O-])cc1C(=O)N1CCOCC1 the results were Rango-impB inh 0.3%, GLA inh pH 4.5 9, miR-21 FLuc -1% and Rango release inh -10%.
Screening Cc1nc2ccccc2n1CC(=O)OCC(=O)N1CCC(C)CC1 returned Rango-impB inh -1.3% and Rango release inh 6%.
`NC(=O)C(CC(=O)O)NC(=O)[C@@H]1CCOc2c(I)cc([N+](=O)[O-])cc2C(=O)N[C@@H](CCC(=O)O)C(=O)N[C@@H](CO)C(=O)N1` (stereo not given in full) gave Rango-impB inh -1.5%, GLA inh pH 4.5 -3, miR-21 FLuc 0% and Rango release inh 7%.
For COc1cccc(CN2CCc3[nH]c(=S)[nH]c(=O)c3C2)c1 the results were Rango-impB inh 0.6%, miR-21 FLuc -8% and Rango release inh 6%.
Screening O=C(c1ccccc1F)N1CCN(c2ccc([N+](=O)[O-])c(NCC3CCCO3)c2)CC1 (stereo not given) returned Rango-impB inh inconclusive, GLA inh pH 4.5 -20, miR-21 FLuc 2% and Rango release inh -8%.
Screening CCOCCCN1C(=O)CN(C2CCCCC2)C(=O)C1c1ccc(OCC)c(OC)c1 (stereo not given) returned Rango-impB inh -1.3%, GLA inh pH 4.5 3, miR-21 FLuc -6% and Rango release inh -9%.
For O=C(CC12CC3CC(CC(C3)C1)C2)NCCN1CCOCC1 the results were Rango-impB inh 2.1%, GLA inh pH 4.5 3, miR-21 FLuc -9% and Rango release inh -11%.
For COc1ccc(/C=C/C(=O)NCCOc2ccc(C)cc2)cc1 the results were Rango-impB inh -1.4%, GLA inh pH 4.5 -5, miR-21 FLuc -6% and Rango release inh 1%.
COc1cc(C2NC(=S)NC(c3ccccc3)=C2C(C)=O)ccc1O (stereo not given) was read as Rango-impB inh -1.8%, GLA inh pH 4.5 1, miR-21 FLuc 0% and Rango release inh -10%.
Screening CC(=O)NC(Cc1ccc(F)cc1)C(=O)NC1CCN(C(=O)NCc2ccccc2)CC1 (stereo not given) returned Rango-impB inh 0.5%, miR-21 FLuc 0% and Rango release inh -6%.
Cc1ccc(-c2nnc(SCC(C)C)n2C)cc1 was read as Rango-impB inh 0.9%, GLA inh pH 4.5 10, miR-21 FLuc -56% and Rango release inh 10%.
CC(=O)c1cccc(NC(=O)C(C)OC(=O)c2cc(C)oc2C)c1 (stereo not given) was read as Rango-impB inh 0.6% and Rango release inh -10%.
